From PubChem
MITF inhib – inhibitors of MITF, primary screen, MITF inhibitor project, cell-based, luminescence | actives 0.28% (n = 37,000) | AID 2240, 2010 | TRPM1 promoter luciferase, 24 h | inhibition, % (no concentration beside the values);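 active = most replicates at 85% or more, or half of them and the mean; inconclusive = half reach 85% but not the mean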;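 note: human melanocyte line stably carrying TRPM1 promoter luciferase reporter; 0% = vehicle wells and 100% = a positive control; the first replicate is given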
YB-1 expression – inhibitors of YB-1 gene expression, primary screen, cell-based, fluorescence; U2OS, qRT-PCR YB-1 vs CDIP delta delta Cp, 16 h; hits give high values; zero = DMSO, each unit about twofold; delta delta Cp (YB-1 minus CDIP) (no concentration beside the values); actives 0.37% (n = 30,000);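 active = delta delta Cp rounded down to an integer at or above 3, about 3 SD of DMSO wells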;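 note: higher means less YB-1 transcript or more CDIP transcript relative to DMSO; stock transfer was 100 nL into about 100 µL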
PD-1 reversal – activators reversing PD-1 mediated T-cell inhibition, primary screen, luminescence, primary human CD4 T cells, PD-L1 beads. CellTiter-Glo 96 h. activation, % (concentration not given with the values). 29,000 tested, under 10 active. AID 2316, 2010;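 active = replicate mean of 50% or more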;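 note: 0% = median vehicle wells and 100% = positive control; 100 nL library stock added to about 50 µL; numbers are from one replicate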
Hedgehog inh – Hedgehog pathway signaling inhibitors, primary screen, luminescence, Shh-LIGHT2 cells, Gli-luciferase | Shh-LIGHT2 Gli-luciferase reporter, 30 h | inhibition, % (no concentration beside the values) | actives 2.1% (n = 22,000) | AID 2313, 2010;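 active = replicate mean of 65% or more; inconclusive = mean lower but half the replicates past it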;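 note: pathway switched on by Shh-conditioned medium diluted 1 in 25 in low serum; 100 nL library stock added to about 40 µL; 0% = median of neutral wells and 100% = positive control level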
* marks the source's active call; other numbers are inactive results; u = inconclusive; x = not tested or not shown. Some of the compounds tested (hit frequency here may not be typical).

cpd	canonical_smiles	MITF inhib	YB-1 expression	PD-1 reversal	Hedgehog inh
1	CN(C(=O)CN1C(=O)c2ccccc2S1(=O)=O)c1ccccc1C(=O)O	-18.8	x	2.5	x
2	C[C@@H]1CN([C@H](C)CO)C(=O)Cc2cc(NC(=O)NC3CCCCC3)ccc2O[C@H]1CN(C)Cc1ccncc1	8.0	0.169	2.2	9.1
3	O=C(Nc1sc2c(c1C(=O)O)CCCC2)c1ccc(Br)cc1	-11.9	-0.228	0.7	-9.5
4	Cn1ncc(Br)c1-c1nc2ccccc2[nH]1	-36.8	0.306	-1.1	-21.9
5	COc1ccccc1C(=O)n1nc(-c2ccccc2)nc1NCc1ccco1	-61.1	x	-2.3	x
6	CCn1c(SCC(=O)NC(C)(C)C)nnc1-c1cccc([N+](=O)[O-])c1	-4.3	x	2.3	x
7	C[C@@H]1CN([C@@H](C)CO)C(=O)c2cccc(NC(=O)c3ccc(-c4nccs4)cc3)c2O[C@@H]1CN(C)Cc1ccccc1	-6.6	0.277	-1.4	39.4
8	COC(=O)C1=CN(C2CC2)C=C(C(=O)OC)C1c1ccccc1	13.2	0.0789	-1.2	9.1
9	C[C@H](CO)N1C[C@H](C)[C@H](CN(C)Cc2ccc(C(F)(F)F)cc2)Oc2ccc(NC(=O)c3ccncc3)cc2CC1=O	-1.6	0.0495	-1.8	12.5
10	CCN(CC(=O)O)S(=O)(=O)c1ccc(F)cc1	-22.6	x	3.0	x
11	C[C@@H]1CN([C@@H](C)CO)C(=O)c2cc(NC(=O)C3CCCCC3)ccc2O[C@H]1CN(C)Cc1ccncc1	-5.6	0.217	x	-2.2
12	Cc1ccccc1OCC(=O)Nc1cc(-c2nc3ccccc3s2)c(Cl)cc1Cl	48.2	x	1.4	x
13	CSc1ncc(Cl)c(C(=O)Nc2nnc(SC/C=C/c3ccccc3)s2)n1	-0.1	x	3.7	x
14	CC1C[C@@]23CC4C(C)(C)[C@@]5(C[C@]4(CN2C1=O)N(C)C3=O)C(=O)Nc1c5ccc2c1C(=O)CC(C)(C)O2 (stereo not given in full)	9.5	-0.183	-0.4	7.5
15	COc1ccc(NC(=O)Nc2cccc3c2O[C@H](CN(C)CC2CCCCC2)[C@@H](C)CN([C@H](C)CO)C3=O)cc1	5.8	-0.613	-4.8	-23.5
16	CCCN(C)C[C@@H]1OCCCC[C@@H](C)Oc2ccc(NC(=O)C3CCCCC3)cc2C(=O)N([C@H](C)CO)C[C@@H]1C	10.3	-0.451	x	-23.1
17	COc1ccc(Cl)cc1NC(=S)NCc1cccnc1	5.6	x	-1.4	x
18	C[C@H](CO)N1C[C@H](C)[C@H](CN(C)S(=O)(=O)c2ccc(F)cc2)Oc2c(NS(=O)(=O)c3ccccc3)cccc2C1=O	0.6	-0.298	-0.6	9.0
19	COc1ccc(NC(=O)N(C)C[C@@H]2Oc3ccc(NC(=O)Nc4c(C)noc4C)cc3CC(=O)N([C@H](C)CO)C[C@@H]2C)cc1	-15.3	-0.721	0.8	-33.9
20	C=C(C)[C@@H]1CC[C@]2(C(=O)O)CC[C@]3(C)[C@H](CCC4[C@]5(C)C(CC[C@]43C)[C@@](C)(CO)[C@@H](O)[C@@H]5C(=O)O)C12 (stereo not given in full)	-14.0	0.282	-1.0	-41.7
21	C[C@@H]1CCCCO[C@H](CN(C)C(=O)Nc2ccc3c(c2)OCO3)[C@@H](C)CN([C@H](C)CO)C(=O)c2cc(NS(=O)(=O)c3cccs3)ccc2O1	-5.9	-0.195	x	-0.3
22	CC1(C)c2ccccc2N2CC(=O)NC21/C=C/c1ccc(F)cc1 (stereo not given)	4.5	-0.295	0.1	-19.4
23	C[C@@H]1CCCCO[C@H](CN(C)S(=O)(=O)c2ccccc2)[C@@H](C)CN([C@H](C)CO)C(=O)c2cc(NC(=O)Nc3ccc(C(F)(F)F)cc3)ccc2O1	4.9	0.0635	x	x
24	Cc1noc(C)c1S(=O)(=O)Nc1ccc2c(c1)C(=O)N([C@H](C)CO)C[C@H](C)[C@H](CN(C)Cc1ccc(Cl)c(Cl)c1)O2	9.4	0.0253	-1.7	31.5
25	CC(C)NC(=O)Nc1cccc2c1O[C@@H](CN(C)Cc1ccc3c(c1)OCO3)[C@H](C)CN([C@H](C)CO)C2=O	3.6	-0.136	0.7	34.6
26	COc1ccc(Br)cc1COC(=O)C1c2ccccc2Oc2ccccc21	6.6	0.0867	1.2	42.7
27	Cc1ccc(C(=O)c2coc3ccc(O)cc23)o1	26.1	0.0885	-2.0	-29.6
28	C=CC1(C)C=C2CCC3C(C)(C)C(O[C@@H]4O[C@@H](CO)[C@H](O)[C@H]4O)CCC3(C)C2CC1O[C@@H]1O[C@H](C)[C@H](O)[C@H](O)[C@H]1O (stereo not given in full)	1.4	0.406	0.3	-7.7
29	C[C@@H]1CN([C@@H](C)CO)C(=O)c2cccc(NC(=O)C3CCOCC3)c2O[C@@H]1CN(C)S(=O)(=O)c1ccccc1	0.2	-0.536	2.5	-21.9
30	COc1ccc(NC(=O)N(C)C[C@H]2Oc3ccc(NS(=O)(=O)c4ccc(Cl)cc4)cc3C(=O)N([C@@H](C)CO)C[C@@H]2C)cc1	-8.7	0.0183	0.7	-31.5
31	CC1(C)CC[C@]2(C(=O)O)CC[C@]3(C)C(=CCC4[C@@]5(C)CC[C@H](O[C@@H]6O[C@H](C(=O)O)[C@@H](O[C@@H]7O[C@H](CO)[C@@H](O)[C@H](O)[C@H]7O)[C@H](O)[C@H]6O[C@@H]6O[C@H](CO)[C@@H](O)[C@H](O)[C@H]6O)C(C)(C)C5CC[C@]43C)C2C1 (stereo not given in full)	-0.3	-0.239	-0.9	16.3
32	C[C@H]1CN([C@@H](C)CO)C(=O)Cc2cc(NC(=O)C3CC3)ccc2O[C@H]1CN(C)Cc1ccc(C(=O)Nc2ccccc2N)cc1	14.8	-0.39	-1.8	x
33	C[C@@H]1CN([C@@H](C)CO)C(=O)c2cc(NS(=O)(=O)c3ccc(F)cc3)ccc2O[C@H]1CN(C)S(=O)(=O)c1cccs1	-1.8	-0.0697	-4.0	x
34	O=C(/C=C/c1ccc(O)cc1)OC[C@]12O[C@H]1[C@@H](O)[C@@H]1C=CO[C@@H](O[C@@H]3O[C@H](CO)[C@@H](O)[C@H](O)[C@H]3O)[C@@H]12	x	-1.09	x	-23.6
35	O=C(CS(=O)c1ccccc1[N+](=O)[O-])Nc1cccc(C(F)(F)F)c1 (stereo not given)	2.9	x	-3.3	x
36	C[C@@H]1CN([C@H](C)CO)C(=O)c2cc(NS(C)(=O)=O)ccc2O[C@H]1CN(C)Cc1ccccc1	8.7	0.421	x	-30.4
37	C[C@@H]1CN([C@H](C)CO)C(=O)c2cccc(NC(=O)Nc3ccc(F)cc3)c2O[C@H]1CN(C)C(=O)Nc1ccc(F)cc1	2.3	0.049	-2.3	-3.9
38	O=C(O)CC(Cc1ccc(Cl)cc1)C(=O)Nc1ccccc1I (stereo not given)	-16.2	x	3.3	x
39	O=C(COc1ccccc1[N+](=O)[O-])Nc1ccc(N2CCN(C(=O)c3ccco3)CC2)cc1	69.9	x	-2.0	x
40	CC(C)NC(=O)N(C)C[C@@H]1Oc2ccc(NC(=O)Nc3ccc(F)cc3)cc2CC(=O)N([C@@H](C)CO)C[C@@H]1C	-4.4	0.157	-0.4	-42.4
41	Cc1noc(C)c1NC(=O)Nc1ccc2c(c1)CC(=O)N([C@H](C)CO)C[C@@H](C)[C@@H](CN(C)S(=O)(=O)c1cccs1)O2	-2.3	-0.243	x	-19.7
42	COc1cc(O)c2c(=O)oc3c(O)c(OC)cc(C)c3c2c1	-6.1	0.144	-1.8	-18.5
43	CCOc1ccc(N2C(=O)CCC2=O)cc1	24.1	-0.899	3.6	41.2
44	COc1ccc(CN(C)C[C@H]2Oc3ccc(NC(=O)Nc4ccc5c(c4)OCO5)cc3C(=O)N([C@@H](C)CO)C[C@H]2C)cc1	2.6	-0.244	0.8	3.4
45	C[C@H]1CN([C@@H](C)CO)C(=O)c2cccc(NS(=O)(=O)c3ccccc3)c2O[C@@H]1CN(C)Cc1ccccc1	-3.9	0.0528	1.2	u
46	COC(=O)c1ccccc1NC(=O)CN(C1CCCCC1)S(C)(=O)=O	-0.4	x	-0.5	x
47	C[C@@H]1CN([C@H](C)CO)C(=O)c2cc(NS(=O)(=O)c3ccccc3)ccc2O[C@@H]1CN(C)Cc1ccc(C(=O)Nc2ccccc2N)cc1	20.2	-1.08	-1.2	x
48	C[C@H](CO)N1C[C@H](C)[C@H](CN(C)Cc2ccc(-c3ccccc3)cc2)Oc2c(NC(=O)c3ccc(-c4nccs4)cc3)cccc2C1=O	6.5	0.439	-0.3	7.2
49	C[C@H]1CN([C@@H](C)CO)C(=O)c2cccc(NC(=O)C3CCOCC3)c2O[C@H]1CN(C)C(=O)NC1CCCCC1	-1.2	0.19	3.0	-9.4
50	Cc1c(Cl)cccc1NC(=O)c1ccc(OCC(=O)Nc2ccc(F)cc2)cc1	3.3	x	-1.4	x
51	CN(CC(=O)Nc1cccc(Cl)c1)S(=O)(=O)c1ccccc1	0.7	x	-0.4	x
52	CC(C)NC(=O)Nc1ccc2c(c1)CC(=O)N([C@H](C)CO)C[C@@H](C)[C@H](CN(C)Cc1ccc3c(c1)OCO3)O2	-3.8	-0.453	-0.2	-3.2
53	C[C@H]1CN([C@@H](C)CO)C(=O)c2cccc(NC(=O)c3ccncc3)c2O[C@H]1CN(C)C(=O)Nc1cccc2ccccc12	-3.0	0.14	1.1	-19.3
54	CC(C)NC(=O)Nc1ccc2c(c1)C(=O)N([C@H](C)CO)C[C@@H](C)[C@@H](CN(C)C(=O)Nc1ccc(C(F)(F)F)cc1)O2	-2.0	-0.446	-1.3	-41.5
55	Cc1ccc(S(=O)(=O)N(C)CC(=O)Nc2ccccc2-c2ccccc2)cc1	16.4	x	1.3	x
56	C[C@@H]1CN([C@@H](C)CO)C(=O)c2cc(NC(=O)CCN3CCOCC3)ccc2O[C@@H]1CN(C)C(=O)Nc1ccc(C(F)(F)F)cc1	9.7	0.0441	x	x
57	Cn1c(SCC(=O)c2ccc(Br)cc2)nnc1-c1cccc([N+](=O)[O-])c1	7.4	x	-0.3	x
58	C[C@@H]1CN([C@@H](C)CO)C(=O)c2cc(NC(=O)Nc3cccc4ccccc34)ccc2O[C@@H]1CN(C)Cc1ccc(C(=O)O)cc1	2.0	0.233	0.4	21.8
59	CS(=O)(=O)N(CC(=O)Nc1c(F)cccc1F)c1cccc(Cl)c1Cl	3.7	x	1.9	x
60	C[C@@H]1CN([C@H](C)CO)C(=O)Cc2cc(NC(=O)CCCN(C)C)ccc2O[C@@H]1CN(C)S(=O)(=O)c1ccc(Cl)cc1	0.9	0.392	x	-24.4

Entries of single compounds, looked up by structure. Screens in order: MITF inhib	YB-1 expression	PD-1 reversal	Hedgehog inh
`C[C@@H]1CN([C@@H](C)CO)C(=O)c2cc(NC(=O)CCN3CCOCC3)ccc2O[C@@H]1CN(C)C(=O)Nc1ccc(C(F)(F)F)cc1` is entered as 9.7	0.0441	x	x
`C[C@@H]1CN([C@@H](C)CO)C(=O)c2cc(NC(=O)Nc3cccc4ccccc34)ccc2O[C@@H]1CN(C)Cc1ccc(C(=O)O)cc1` is entered as 2.0	0.233	0.4	21.8
`CN(CC(=O)Nc1cccc(Cl)c1)S(=O)(=O)c1ccccc1` is entered as 0.7	x	-0.4	x
`Cn1c(SCC(=O)c2ccc(Br)cc2)nnc1-c1cccc([N+](=O)[O-])c1` is entered as 7.4	x	-0.3	x
`Cc1c(Cl)cccc1NC(=O)c1ccc(OCC(=O)Nc2ccc(F)cc2)cc1` is entered as 3.3	x	-1.4	x

(next part)
cpd	canonical_smiles	MITF inhib	YB-1 expression	PD-1 reversal	Hedgehog inh
61	Cc1ccc(OCC(=O)Nc2ccccc2N2CCN(S(C)(=O)=O)CC2)cc1	-58.2	x	-2.8	x
62	C[C@H]1CN([C@@H](C)CO)C(=O)c2cccc(NS(=O)(=O)c3ccccc3)c2O[C@H]1CN(C)C(=O)Nc1cccc2ccccc12	6.4	-0.105	0.5	-2.9
63	C[C@H](CO)N1C[C@H](C)[C@H](CN(C)C(=O)Nc2cccc3ccccc23)Oc2c(NC(=O)Nc3ccc(F)cc3)cccc2C1=O	27.7	0.333	-0.1	-60.0
64	Cc1[nH]c2ccccc2c1C(=O)CSc1nnc(N)s1	-25.9	x	0.9	x
65	CC(C)(C)NC(=O)NCc1ccncc1	6.9	0.368	1.2	-60.5
66	COc1ccc(S(=O)(=O)N(C)C[C@@H]2Oc3c(NC(=O)Nc4cccc5ccccc45)cccc3C(=O)N([C@H](C)CO)C[C@H]2C)cc1	2.5	0.18	x	38.2
67	C[C@@H]1CN([C@@H](C)CO)C(=O)Cc2cc(NC(=O)Nc3ccc(C(F)(F)F)cc3)ccc2O[C@@H]1CN(C)C(=O)Nc1ccc(C(F)(F)F)cc1	33.5	-0.136	-2.7	19.8
68	C[C@@H]1CN([C@@H](C)CO)C(=O)c2cccc(NC(=O)c3ccncc3)c2O[C@@H]1CN(C)C	-1.5	-0.79	0.2	-39.8
